# D2 potentiator: potentiates the human D2 dopamine receptor allosterically. potentiation, % (concentration not given with the values). DiscoveRx D2 beta-arrestin cells, luminescence, 90 min; 100% = 57 uM dopamine signal. P14416. hit rate 0.23% among 360,000; active = potentiation of 50% or more; inconclusive = 30% to 50%; inactive = 30% or less;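 note: compound concentration not given in the record; tested on top of an EC20 dose of dopamine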
# Target sequence (P14416 whole entry, looked up): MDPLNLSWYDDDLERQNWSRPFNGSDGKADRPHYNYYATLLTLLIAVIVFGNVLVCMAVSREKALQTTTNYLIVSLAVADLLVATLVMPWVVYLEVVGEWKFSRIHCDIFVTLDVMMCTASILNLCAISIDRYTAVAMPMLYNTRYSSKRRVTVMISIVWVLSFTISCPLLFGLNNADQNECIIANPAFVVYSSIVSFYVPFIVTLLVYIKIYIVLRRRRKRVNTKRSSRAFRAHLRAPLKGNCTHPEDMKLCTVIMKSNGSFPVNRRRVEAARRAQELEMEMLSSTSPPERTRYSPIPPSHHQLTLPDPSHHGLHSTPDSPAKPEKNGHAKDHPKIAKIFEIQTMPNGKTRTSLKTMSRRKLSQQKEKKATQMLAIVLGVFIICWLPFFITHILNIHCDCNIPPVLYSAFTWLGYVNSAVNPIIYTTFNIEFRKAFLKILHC
#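 PathHunter D2 cells, attached overnight at 37 deg C, received compound in DMSO plus dopamine at EC20 (50 nM final) for 90 min at 37 deg C. Beta-arrestin recruitment was read as luminescence after 1 h with detection reagent at ambient temperature.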
# TRPML1 blocker: human mucolipin-1 channel inhibition | TRPML1-inducible cells, Ca2+ dye fluorescence, FDSS; active compounds read low; inhibition of EC80 agonist-evoked calcium signal | activity change, negative = inhibition, % (concentration not given with the values) | hit rate 0.02% among 390,000; in the data active means activity change below about -50%; inconclusive means about -30% to -50%; inactive means above about -30%;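 note: stimulus is agonist 54-4 at its EC80 concentration; % is set by controls: 0 for no effect and ±100 for the full control effect; the text of the record puts the active cut at -80%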
# Target sequence (Q9GZU1 whole entry, looked up): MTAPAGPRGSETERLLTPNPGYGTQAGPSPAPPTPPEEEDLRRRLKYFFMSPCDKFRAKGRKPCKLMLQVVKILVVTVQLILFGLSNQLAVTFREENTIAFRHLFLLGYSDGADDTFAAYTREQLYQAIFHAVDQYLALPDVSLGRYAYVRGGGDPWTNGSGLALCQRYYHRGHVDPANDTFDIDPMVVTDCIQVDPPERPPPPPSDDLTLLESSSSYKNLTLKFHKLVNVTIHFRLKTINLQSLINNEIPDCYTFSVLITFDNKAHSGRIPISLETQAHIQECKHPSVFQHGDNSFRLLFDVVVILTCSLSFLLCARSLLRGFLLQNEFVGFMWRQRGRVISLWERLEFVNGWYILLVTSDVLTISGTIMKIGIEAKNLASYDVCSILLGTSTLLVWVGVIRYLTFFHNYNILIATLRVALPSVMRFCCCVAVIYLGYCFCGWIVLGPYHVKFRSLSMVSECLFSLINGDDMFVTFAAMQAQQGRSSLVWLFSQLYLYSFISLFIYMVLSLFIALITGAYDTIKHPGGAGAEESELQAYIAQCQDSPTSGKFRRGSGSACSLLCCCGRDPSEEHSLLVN
#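 Tet-induced TRPML1-DL cells loaded with Ca8 no-wash calcium dye were read kinetically on FDSS. Compound addition was followed by EC80 agonist 54-4 (4 uM final); inhibition was read over 110 s.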
# TRPML1 ag: human mucolipin-1 channel agonism; Q9GZU1; TRPML1-expressing cells, Ca2+ dye fluorescence, FDSS; host cell line not named in the record; reference of the full effect not given here; activation, % (test concentration not listed); hit rate 0.12% among 410,000; AID 624414; in the data active = activation above about 50%; inconclusive = about 30% to 50%; inactive = below about 30%; note: 0% is about no effect; the text of the record puts the active cut at 80%
#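 Tetracycline-induced TRPML1-DL cells are seeded and incubated overnight before loading with a no-wash Ca2+ dye and quencher. Agonist activity is taken from the 110 s fluorescence read following compound pin-transfer on an FDSS, before EC80 54-4 challenge.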
# D2 agonist: agonists of human D2 dopamine receptor (beta-arrestin). P14416. DiscoveRx PathHunter D2 beta-arrestin, luminescence, 90 min; 100% = 57 uM dopamine signal. activation, % (test concentration not listed). hit rate 0.084% among 360,000; in the data active = activation above about 40%; inconclusive = about 15% to 40%; inactive = below about 15%; note: compound concentration not given in the record; the text of the record calls up to 30% inactive
#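 DiscoveRx PathHunter D2 beta-arrestin cells (2,100/well) attached overnight, then compound-stimulated 90 min at 37 C in HBSS/10 mM HEPES/0.1% Tween-20 buffer; beta-galactosidase complementation read by luminescence after 1 h at ambient temperature. Dopamine 57 uM final (EC100) as control.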
# Six1-Eya2 blk: Six1/Eya2 interaction inhibition | Q15475+O00167 | AlphaScreen GST-Six1/His-Eya2 binding, biochemical; active compounds read low; control for the full effect not named in the record | activity change, % (concentration not given with the values) | hit rate 0.56% among 360,000; in the data active = activity change below about -65%; inconclusive = about -30% to -65%; inactive = above about -30%; note: % is set by controls: 0 for no effect and ±100 for the full control effect
#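 Compounds are tested against tagged Six1 and Eya2 proteins bridged by glutathione donor and nickel acceptor beads; after a one-hour incubation at 37 °C without light, AlphaScreen emission is recorded.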
# PINK1 modulator: modulators of PINK1 expression | PINK1 immunofluorescence, high-content cytometry, 24 h | Potency, µM (doses to about 76.6 µM), for inactives: top-dose activation (PINK1 increase), most hits filed as activators | hit rate 0.2% among 410,000 | AID 624263; active = well fitted activation curve with a large enough effect; inconclusive = small, poorly fitted or top-dose-only effect; inactive = flat fitted curve, though single readings scatter; cell line not stated here;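 note: potency is the fitted concentration of half-maximal effect; % of control where 0% means no effect; nearly all actives have a fitted effect of over 65% in size; a mitochondrial uncoupler was the plate control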
#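 PINK1 protein, normally rapidly degraded, was detected by immunofluorescence after 24 hour compound treatment of a stable cell line. Titration data (5 concentrations) came from laser-scanning cytometry, with CCCP-treated wells as controls.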
# * marks the source's active call; other numbers are inactive results; ? = inconclusive; · = no result given; & = joins results of further samples; [ ] = dose if it differs, or a comment.
compound,D2 potentiator,TRPML1 blocker,TRPML1 ag,D2 agonist,Six1-Eya2 blk,PINK1 modulator
CCOc1ccc(/C=N/NC(=O)c2csc(C)c2C)c(OCC)c1,-6,13,3.7,-1.8,18,-0.3%
Cc1ccc(S(=O)(=O)c2c(C)cc(C)[nH]c2=O)cc1,-5,11,-0.2,-3.5,5,3.3%
CCOC(OCC)c1nc(N)[nH]c(=O)c1CCCCc1ccccc1,1,6,-0.1,-3.4,11,-1.1%
COCCCNC(=O)C[C@H]1C[C@H](C(=O)N2CCOCC2)[C@@]2(C)c3[nH]c4cc(CCC(=O)N(C)C)ccc4c3CCN2C1=O,-2,-17,-0.1,-1.3,-2,-0.8%
Cc1ccc(NC(=O)c2ccc(COc3ccccc3[N+](=O)[O-])o2)nc1,-3,5,0.7,-2.6,-20,7.9%
O=C(c1ccc(-n2cccc2)cc1)N1CCCCC1,0,-3,0.8,-0.7,-2,2.3%
O=c1c2ccccc2nc(N/N=C/c2ccc(O)cc2)n1O,-2,22,1.2,-3.2,0,-0.7%
COc1ccccc1C(=O)Nc1cccc(Oc2c(F)c(F)c(F)c(F)c2F)c1,-6,35,1.2,-2.9,-11,3.9%
CCOc1ccc(S(=O)(=O)N2CCN(C(=O)C3CSC4(C)CCC(=O)N34)CC2)cc1 (configuration not stated),-10,-6,1.0,0.5,-3,0.2%
CCOC(=O)CCCCC(=O)c1[nH]c(=O)[nH]c1CN1CCOCC1,-1,-11,-0.1,-0.8,2,-0.4%[38.3 µM]
Cc1nc(SC(C)C(=O)Nc2c(C)n(C)n(-c3ccccc3)c2=O)nc(C)c1C (configuration not stated),-1,-7,-0.3,4.8,8,0.7%
CCOc1ccccc1CNC(=O)Nc1cn(CC(C)C)c(=O)c2ccccc12,·,37,2.5,·,·,-5.2%

# Sorted by SMILES length (ascending): 10 of the compounds above.
compound,D2 potentiator,TRPML1 blocker,TRPML1 ag,D2 agonist,Six1-Eya2 blk,PINK1 modulator
O=C(c1ccc(-n2cccc2)cc1)N1CCCCC1,0,-3,0.8,-0.7,-2,2.3%
O=c1c2ccccc2nc(N/N=C/c2ccc(O)cc2)n1O,-2,22,1.2,-3.2,0,-0.7%
Cc1ccc(S(=O)(=O)c2c(C)cc(C)[nH]c2=O)cc1,-5,11,-0.2,-3.5,5,3.3%
CCOc1ccc(/C=N/NC(=O)c2csc(C)c2C)c(OCC)c1,-6,13,3.7,-1.8,18,-0.3%
CCOC(=O)CCCCC(=O)c1[nH]c(=O)[nH]c1CN1CCOCC1,-1,-11,-0.1,-0.8,2,-0.4%[38.3 µM]
CCOc1ccccc1CNC(=O)Nc1cn(CC(C)C)c(=O)c2ccccc12,·,37,2.5,·,·,-5.2%
Cc1ccc(NC(=O)c2ccc(COc3ccccc3[N+](=O)[O-])o2)nc1,-3,5,0.7,-2.6,-20,7.9%
Cc1nc(SC(C)C(=O)Nc2c(C)n(C)n(-c3ccccc3)c2=O)nc(C)c1C (configuration not stated),-1,-7,-0.3,4.8,8,0.7%
CCOc1ccc(S(=O)(=O)N2CCN(C(=O)C3CSC4(C)CCC(=O)N34)CC2)cc1 (configuration not stated),-10,-6,1.0,0.5,-3,0.2%
COCCCNC(=O)C[C@H]1C[C@H](C(=O)N2CCOCC2)[C@@]2(C)c3[nH]c4cc(CCC(=O)N(C)C)ccc4c3CCN2C1=O,-2,-17,-0.1,-1.3,-2,-0.8%

# Further structures
compound,D2 potentiator,TRPML1 blocker,TRPML1 ag,D2 agonist,Six1-Eya2 blk,PINK1 modulator
COc1ccc(C(=O)CCC(=O)Nc2cccnc2)c(OC)c1,-3,8,0.5,-1.9,-10,-2.3%
Cc1ccc(Cn2ccnc2SCC(=O)NCc2ccc(F)cc2)cc1,·,-4,0.5,·,·,21%
O=C(O)c1cccc(-n2c(/C=C/c3cccc([N+](=O)[O-])c3)nc3ccccc3c2=O)c1,1,-15,0.6,-2.1,-6,4.0%
O=S(=O)(NCCc1ccncc1)c1ccc(S(=O)(=O)N2CCCCCC2)cc1,-4,-20,-0.6,0.9,1,-3.1%[38.3 µM]
Cc1c(C(=O)O)sc2[nH]c(=O)n(Cc3ccccc3)c(=O)c12,-6,8,-0.7,-2.0,-1,2.1%
COc1ccc(Cc2nnc(NC(=O)C3CCCO3)s2)cc1 (configuration not stated),-1,13,0.4,-0.6,4,-0.8%
CC(=O)OCC(=O)C1(O)CCC2C3CC(C)C4=CC(=O)C=CC4(C)C3=CCC21C (configuration not stated),-5,-11,-0.6,-3.8,10,10%
COc1ccc(N(CCC(=O)O)S(=O)(=O)c2ccc(C)c(C)c2)cc1,-3,-23,0.7,-0.4,6,0.9%
Cc1noc(C)c1S(=O)(=O)N1CCC(C(=O)Nc2ccc(Br)cc2)CC1,-11,20&56,-0.2&-1.3,1.2,3,3.8%&4.8%
CCc1cc(=O)oc2cc(C)cc(OCC(=O)C(C)(C)C)c12,-9,7,1.6,-2.6,10,4.5%
CC(=O)Nc1ccc(NC(=O)C2CCN(S(=O)(=O)c3ccc4c(c3)CCCC(=O)N4)CC2)cc1,·,5,2.3,·,·,7.4%
CCOc1ccc(OCCn2c(=S)[nH]c3c(N)ncnc32)cc1,-2,-4,-1.0,7.3,-2,2.0%

# The list goes on.
compound,D2 potentiator,TRPML1 blocker,TRPML1 ag,D2 agonist,Six1-Eya2 blk,PINK1 modulator
O=C(NCc1cccnc1)c1cc(Sc2ccc(F)cc2F)nc2ccccc12,-9,-3,-0.8,-0.2,-10,-1.0%
Cc1ccc2nc3c(cc(C#N)c(=O)n3-c3nccs3)c(=O)n2c1,-5,1,-0.8,-4.6,-14,3.1%
CN1[C@@H]2CC[C@H]1CC(OC(=O)[C@H](CO)c1ccccc1)C2 (some centres not stated),-14,-1,-0.5,-1.3,0,1.1%
Cc1cc(C)cc(NC(=O)c2c(C)oc3nc(C)nc(N4CCCC4)c23)c1,·,68,2.6,·,·,-1.3%
O=C(O)c1ccc2cccnc2c1O,2,9,0.7,8.8,-16,5.5%
CC1(C)NC(=O)N(CC(=O)N2CCN(S(=O)(=O)c3ccccc3F)CC2)C1=O,-5,-16,-0.5,-9.1,9,-0.2%
COc1cccc(NC(=O)c2ccccc2C(F)(F)F)c1,-7,-8,-0.3,-0.8,5,1.3%
CCCC(=O)N1CCC1(C)C(=O)Nc1ccccc1C(C)(C)C (configuration not stated),-7,60,-0.1,-1.6,0,2.0%
O=C(NCc1n[nH]c(=O)c2ccccc12)C1CC(=O)N(c2ccccc2)C1 (configuration not stated),-2,11,-0.2,0.1,0,0.1%
CNC(=O)C1CCC(Cn2c(=O)c3sccc3n(CC(=O)Nc3ccc(C)cc3C)c2=O)CC1 (configuration not stated),·,-4,-0.4,·,·,-0.7%
CC(=NNC(=O)c1ccncc1)c1ccc(O)cc1O,-22,-7,0.6,-1.7,?,-1.9%
Cc1nn(C)cc1CNC(=O)c1cccc(Br)c1,14,-6,1.7,0.6,7,-0.7%

# Carrying on:
compound,D2 potentiator,TRPML1 blocker,TRPML1 ag,D2 agonist,Six1-Eya2 blk,PINK1 modulator
CC(=O)N1CCc2cc(Br)cc(S(=O)(=O)CCC(=O)N3CCN(c4cccc(C)c4C)CC3)c21,·,-7,0.3,·,·,1.5%
CNC(=O)CSc1nc2c([nH]c3ccccc32)c(=O)n1CCOC,-7,-1,-0.6,-4.3,5,0.3%
COc1cccc(N(CC(=O)NCCSCc2ccc(Cl)cc2)S(C)(=O)=O)c1,-32,14,-0.9,-3.0,-18,-0.3%
Cc1ccc(/C(O)=C2/C(=O)C(=O)N(c3ccccn3)C2c2ccc([N+](=O)[O-])cc2)cc1 (configuration not stated),-28,10,0.4,-4.6,-2,-1.3%
CC1(C)CC(=O)C=C(c2n[nH]nc2C2=CCCCC2)C1,-1,32,0.1,-2.8,27,-0.5%
O=C(NCCN1C(=O)C2C3C=CC(C3)C2C1=O)Nc1cccnc1 (configuration not stated),-2,1,0.8,-0.4,1,0.8%
CCc1c(C(C)S(=O)(=O)c2ccccc2)[nH]c(=O)n1CC (configuration not stated),0,-14,-0.5,-2.9,2,0.5%
O=C(COc1ccc(F)cc1)Nc1c(C(=O)N2CCC(N3CCCCC3)CC2)oc2ccccc12,-15,-13,0.5,-5.0,-2,1.3%
Cc1ccc2c(c1)N(C(=O)NCc1ccccc1)CCO2,·,10,-0.3,·,·,-0.7%
COc1ccccc1Nc1nc(N)nc(CN(C)C2CCCCC2)n1,-2,0,-0.7,-1.8,?,-1.6%
CC(C)CNC(=O)COC(=O)c1ccc(Cl)c(S(N)(=O)=O)c1,15,17,0.1,-1.0,3,1.2%
Cc1ccccc1-c1noc(-c2ccc(N3CCC(C)CC3)c([N+](=O)[O-])c2)n1,·,14,-0.5,·,·,1.3%

# (more compounds)
compound,D2 potentiator,TRPML1 blocker,TRPML1 ag,D2 agonist,Six1-Eya2 blk,PINK1 modulator
C/C(CC(=O)Nc1ccccn1)=N\NC(=O)c1ccc2ccccc2c1,-4,-25,2.4,1.8,-4,17%
Cc1ccc(CNC(=O)c2cc(S(=O)(=O)N3CCCC3)cn2C)cc1,-4,-1,-0.2,-2.1,2,1.2%
O=C(Nc1ccccc1N1CCCC1)c1ccc(N2CCCC2=O)cc1,-17,6,1.2,-1.8,-4,4.9%
NS(=O)(=O)c1ccc(NNC(=O)c2ccc(Br)o2)c([N+](=O)[O-])c1,-34,-8,0.0,-13,-26,-4.3%
Cc1ccc(C(=O)C2CCN(CC(=O)Nc3ccc4c(c3)OCCO4)CC2)cc1,-18,3,0.9,1.4,-4,4.7%[38.3 µM]
O=C(c1cc(COc2ccc(F)cc2Cl)on1)N1CC2C[C@@H]3CC1C[C@H](C2)C3,-2,79,1.2,-2.6,6,0.1%
O=C(Nc1cccc(S(=O)(=O)N2CCOCC2)c1)C(c1ccccc1)N1CCCCC1 (configuration not stated),-6,3,2.4,-2.0,13,-0.5%
Cc1cccc(/C=C2/Sc3ccc(C(=O)N4CCOCC4)cc3NC2=O)c1,-3,3,-0.8,-4.4,0,-1.2%
O=C(Nc1ccc(F)cc1Cl)c1cnc(N2CCOCC2)c2ccccc12,·,25,0.0,·,·,0.7%
CN1CCN(C(=S)c2ccc(Br)cc2)CC1,-18,25,0.4,-6.0,0,3.6%

# Exported with each value named: 2 of the compounds above.
Cc1ccc(/C(O)=C2/C(=O)C(=O)N(c3ccccn3)C2c2ccc([N+](=O)[O-])cc2)cc1 (configuration not stated)
  D2 potentiator: -28
  TRPML1 blocker: 10
  TRPML1 ag: 0.4
  D2 agonist: -4.6
  Six1-Eya2 blk: -2
  PINK1 modulator: -1.3%
CC1(C)CC(=O)C=C(c2n[nH]nc2C2=CCCCC2)C1
  D2 potentiator: -1
  TRPML1 blocker: 32
  TRPML1 ag: 0.1
  D2 agonist: -2.8
  Six1-Eya2 blk: 27
  PINK1 modulator: -0.5%

# Hits appear at their usual frequency (roughly 1% active in at least one column).
